Cruzain noTriton: inhibitors of Trypanosoma cruzi cruzain without detergent. P25779. purified cruzain, Z-FR-AMC fluorescence, no detergent. Potency, µM, for the others: max response, negative = inhibition, usual class: inhibitors. actives 2.3% (n = 200,000). AID 1476;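 also: plate controls were enzyme without inhibitor for no effect and buffer without enzyme for full effect; nearly all actives have a fitted effect of over 40% in size; top concentration of the series not given in the record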
Target sequence (P25779 123-467 limits assumed): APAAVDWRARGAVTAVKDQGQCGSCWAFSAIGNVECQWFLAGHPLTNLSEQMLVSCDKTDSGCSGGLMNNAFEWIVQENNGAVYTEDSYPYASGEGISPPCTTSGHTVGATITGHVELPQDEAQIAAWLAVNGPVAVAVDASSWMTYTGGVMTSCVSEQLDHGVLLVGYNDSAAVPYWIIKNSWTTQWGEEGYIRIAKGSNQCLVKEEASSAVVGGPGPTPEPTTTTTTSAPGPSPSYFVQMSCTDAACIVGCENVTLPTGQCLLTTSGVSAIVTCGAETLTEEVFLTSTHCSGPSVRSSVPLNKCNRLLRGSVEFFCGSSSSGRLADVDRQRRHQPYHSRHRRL
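Detergent-free condition (0.00005% Triton X-100) in acetate buffer pH 5.5 with DTT. 1.5 nM enzyme and compound were pre-mixed 15 min, then 2 uM Z-FR-AMC substrate added; reaction progress from fluorescence change between first and third reads (60 s).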
2A StopGo: FMDV 2A StopGo reporter, luciferase signal; human cells with a luciferase reporter of 2A StopGo recoding; control for the full effect not named in the record; actives 1.2% (n = 410,000); Potency, µM (doses to about 57.9 µM), for inactives: at the top dose signal change, negative = less light; active = well fitted falling curve with a large enough effect; inconclusive = small, poorly fitted or top-dose-only effect; inactive = no such curve, though single readings can be large or run the other way; tested in HEK293T cells; also: % is scaled to controls: 0 for no effect and ±100 for the full control effect; nearly all actives have a fitted effect of over 45% in size; luciferase light after 4 h
Marburg entry inh: Marburg virus entry inhibition | Potency, µM (doses to about 37.8 µM), for the others: at the highest dose activity change, negative = inhibition, usual class: inhibitors | AID 540276 | actives 1.8% (n = 300,000) | Marburg virus pseudotyped entry inhibition, cell reporter; control for the full effect not named in the record; about a third of the inactives were read at about 46 µM; active = well fitted inhibition curve with a large enough effect; inconclusive = small, poorly fitted or top-dose-only effect, or effect the other way; inactive = flat fitted curve, though single readings scatter; tested in HEK293 cells; about a fifth of its hits are not listed in these tables; also: % is scaled to controls: 0 for no effect and ±100 for the full control effect; luciferase read-out
Cruzain Triton: cruzain (T. cruzi) inhibition with detergent | purified cruzain, Z-FR-AMC fluorescence, 0.01% Triton | Potency, µM, inactives show max response, negative = inhibition, most hits filed as inhibitors | actives 0.43% (n = 200,000);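 also: plate controls were neutral wells for no effect and buffer without enzyme for full effect; nearly all actives have a fitted effect of over 40% in size; top concentration of the series not given in the record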
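Sodium acetate buffer (100 mM, pH 5.5) containing 5 mM DTT and 0.01% Triton X-100 hosted 1.5 nM cruzain and test compound for 15 min at room temperature. Cleavage of 2 uM Z-FR-AMC was then tracked by fluorescence.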
Lassa entry inh: Lassa virus entry inhibition; Lassa virus pseudotype entry inhibition, cell reporter; control for the full effect not named in the record; Potency, µM (doses to about 37.9 µM), without a hit: at the highest dose activity change, negative = inhibition, usual class: inhibitors; actives 1.2% (n = 300,000); active means well fitted inhibition curve with a large enough effect; inconclusive means small, poorly fitted or top-dose-only effect, or effect the other way; inactive means flat fitted curve, though single readings scatter; tested in HEK293 cells; also: % is scaled to controls: 0 for no effect and ±100 for the full control effect; nearly all actives have a fitted effect of over 50% in size; luciferase read-out
NS1 inh: influenza NS1 inhibition; S. cerevisiae slowed by influenza A NS1, growth recovery by OD600; Potency, µM (highest dose often 46.1 µM), inactives show top-dose activity, positive = more growth; actives 0.4% (n = 270,000); AID 2326; active means well fitted rising curve with a large enough effect; inconclusive means small, poorly fitted or top-dose-only effect; inactive means no such curve, though single readings can be large or run the other way; also: nearly all actives have a fitted effect of over 50% in size
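Recovery from NS1-induced slow growth read by OD600 in budding yeast switched to galactose assay medium (pH 6.0, -URA) at 1:100 dilution. Compound 23 nl per well; the matching strain lacking NS1 serves as control.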
RE007 growth inh: less growth of the S. pombe RE007 Vpr strain. Potency, µM (top dose mostly 92.2 µM), inactives show at the highest dose activity change, negative = less growth. S. pombe RE007 Vpr strain, BacTiter-Glo ATP luminescence, 24 h; control for the full effect not named in the record. AID 651644. actives 0.21% (n = 360,000); active = well fitted falling curve with a large enough effect; inconclusive = small, poorly fitted or top-dose-only effect; inactive = no such curve, though single readings can be large or run the other way;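 also: % is scaled to controls: 0 for no effect and ±100 for the full control effect; nearly all actives have a fitted effect of over 50% in size; the assay follows cell death caused by Vpr and the record does not say whether a fall means rescue or toxicity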
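Fission yeast strain RE007, carrying one chromosomally integrated HIV-1 vpr copy, was seeded at OD 0.01 in PMG+AL medium with 23 nL pinned compound. After 24 h at 30 °C and 99% humidity, viability was read by BacTiter-Glo luminescence.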
SARS PLpro yeast: inhibitors of SARS-CoV papain-like protease in yeast; AID 485353; actives 0.19% (n = 330,000); Potency, µM (highest dose often 32.9 µM), for the others: top-dose activity, positive = growth rescue; S. cerevisiae expressing SARS-CoV PLpro, growth rescue; control for the full effect not named in the record; active means well fitted rising curve with a large enough effect; inconclusive means small, poorly fitted or top-dose-only effect; inactive means no such curve, though single readings can be large or run the other way; also: 0% is about no effect; nearly all actives have a fitted effect of over 55% in size; growth read by luminescence after 48 h
Starred values were filed as active, the others as inactive; ? = inconclusive; . = not tested or not shown; & = joins results of further samples; [ ] = another dose, or the depositor's remark. Unless noted, calls follow the shape of the dose curve; as a rule, active = well fitted curve in the direction sought with a large enough effect; inconclusive = small, poorly fitted or top-dose-only effect, or another doubt; inactive = no such curve, though single readings can be large; an effect the other way counts as inactive or inconclusive. Potency is read from the fitted curve at half-maximal effect.

SMILES	Cruzain noTriton	2A StopGo	Marburg entry inh	Cruzain Triton	Lassa entry inh	NS1 inh	RE007 growth inh	SARS PLpro yeast
CC(C)c1ccc(NC(=O)c2ccc(F)c(S(=O)(=O)N3CCN(c4ccccc4F)CC3)c2)cc1	21%	-18%	.	3.1%	20%[46.1 µM]	.	.	.
COc1cccc2[nH]c3c(N4CCCC(C)C4)ncnc3c12 (stereo not given)	?	5%	14%	-7.9%	6%	-41%	1%	-6%
O=C(O)/C=C\C(=O)Nc1ccccc1F	19%	-24%	13%	0.4%	18%	-12%	-8%	-8%
Cn1c(SCc2ccc(C#N)cc2)nnc1-c1ccncc1	.	-2%	.	.	.	1%	-5%	-4%
CN(C)C(=O)c1ccc(NC(=O)CSc2nc3ccccc3[nH]2)cc1	.	?	-16%[46.1 µM]	.	.	.	-7%	0%
Cc1c2c(nc3nc4ccccc4n13)CCCC2=O	-6%	.	9%	3.5%	.	14%	.	2%
Cc1csc(SCCN2C(=O)c3ccccc3C2=O)n1	0%	11%	?	-0.2%	?	-5%	-7%	10%
CCOc1ccc2c(c1)c1nnc(SCC(=O)N3CCC(C)CC3)nc1n2C	?	?	3%&3%	-6.2%	-5%	-5%	6%	3%
CN=C1CN(O)C(c2ccccc2)c2cc(Cl)ccc2N1 (stereo not given)	.	-13%	?	.	-9%[46.1 µM]	.	-11%	.
CNC(=O)C(=O)NCC1OCCCN1S(=O)(=O)c1ccc(F)cc1C (stereo not given)	.	-3%	-5%	.	-17%	2%	-7%	-1%
Cc1cc(C(=O)NNC(=O)c2cccc(N(C)C)c2)c(C)o1	.	-11%	-13%[46.1 µM]	.	27%[46.1 µM]	-5%	-4%	5%
Cc1cc(C(=O)NNc2ccc(F)cc2F)no1	.	-1%	?	.	?	-66%	293%	-2%
CS(=O)(=O)c1ccc(-c2nnn(CC(N)=O)n2)cc1	.	-1%	-24%[46.1 µM]	.	.	.	-5%	-1%
S=C(NCc1ccncc1)Nc1ccc(Cl)cc1Cl	.	-20%	12%	.	-10%	1%	-9%	0%
COc1cccc(CN2C(=O)c3ccccc3C2C(=O)NCCc2ccc(OC)c(OC)c2)c1 (stereo not given)	-9%	6%	.	0.3%	12%[46.1 µM]	.	.	.
Cc1ccc(OCc2ccc(-c3nc(C#N)c(NCc4cccnc4)o3)o2)cc1	?	?	-28%[46.1 µM]	-9.1%	3%[46.1 µM]	.	.	.
CCCCC1CCC(C(=O)N2CC(=O)Nc3ccc(Br)cc3C2c2ccc(F)cc2)CC1 (stereo not given)	?	-25%	?	-2.5%	-16%[46.1 µM]	.	.	.
COc1cc(/C=C2\SC(=Nc3ccccc3)N(CCc3c[nH]c4ccccc34)C2=O)ccc1OC(C)C(=O)O (stereo not given)	?	0%	-1%	?	0%	?	6%	7%
Cc1ccc(NC(=O)NCCc2c(C)nn(C)c2C)cc1Cl	-1%	-10%	.	-0.6%	9%[46.1 µM]	.	.	.
CCn1cc(C(=O)NCCCN2CCN(C)CC2)c(=O)c2cc(S(=O)(=O)N3CCc4ccccc4C3)ccc21	.	-8%	12%	.	5%	.	-10%	2%
C/C(=N\NC(N)=S)C12CC3CC(CC(C3)C1)C2	-4%	.	?	-0.1%	?	-6%	?	7%
COc1ccc(OC)c(S(=O)(=O)Nc2cnc3ccccc3c2)c1	0%	46%[activator]	15%	-2.4%	3%	12%	-12%	-2%
COc1ccc2cc(C(=O)N3CCN(Cc4ccc5c(c4)OCO5)CC3)[nH]c2c1	.	-25%	?	.	?	16%	2%	5%
O=c1[nH]c(N2CCN(c3ccccc3)CC2)nc2c1CCC2	1%	-7%	8%	0.9%	9%	-3%	7%	-1%

Part of the list above, with two lines to a compound.
Under each structure: Cruzain noTriton | 2A StopGo | Marburg entry inh | Cruzain Triton | Lassa entry inh | NS1 inh | RE007 growth inh | SARS PLpro yeast
> Cc1ccc(NC(=O)NCCc2c(C)nn(C)c2C)cc1Cl
 : -1% | -10% | . | -0.6% | 9%[46.1 µM] | . | . | .
> COc1ccc(OC)c(S(=O)(=O)Nc2cnc3ccccc3c2)c1
 : 0% | 46%[activator] | 15% | -2.4% | 3% | 12% | -12% | -2%
> COc1cccc(CN2C(=O)c3ccccc3C2C(=O)NCCc2ccc(OC)c(OC)c2)c1 (stereo not given)
 : -9% | 6% | . | 0.3% | 12%[46.1 µM] | . | . | .
> O=c1[nH]c(N2CCN(c3ccccc3)CC2)nc2c1CCC2
 : 1% | -7% | 8% | 0.9% | 9% | -3% | 7% | -1%
> COc1ccc2cc(C(=O)N3CCN(Cc4ccc5c(c4)OCO5)CC3)[nH]c2c1
 : . | -25% | ? | . | ? | 16% | 2% | 5%

Further entries follow:
SMILES	Cruzain noTriton	2A StopGo	Marburg entry inh	Cruzain Triton	Lassa entry inh	NS1 inh	RE007 growth inh	SARS PLpro yeast
N=c1c[n+](CC23CC4CC(CC(C4)C2)C3)[n-]o1	-2%	-12%	1%[46.1 µM]	4.4%	-8%	20%	20%	2%
CCC(C)(C)n1nnnc1C(c1ccccc1OC)N1CCSCC1 (stereo not given)	1%	.	-26%	-5.0%	11%	-4%	10%	?
CC1CCN(C(=O)COC(=O)CCC(=O)c2ccc(F)cc2)CC1	.	-8%	?	.	26%	.	3%	?
O=C(COc1ccc2c3c(c(=O)oc2c1)CCC3)N1CCN(c2ccc(F)cc2)CC1	.	?	.	.	.	-2%	0%	-3%
COc1ccc(CC(=O)NCC(c2cccs2)S(=O)(=O)c2ccc(F)cc2)cc1 (stereo not given)	3%	-19%	.	-0.6%	-25%[46.1 µM]	.	.	.
N#Cc1c(NC(=S)NC(=O)c2ccccc2)sc2c1CCC2	-7%	11%	?	-7.1%	21%	12%	-2%	2%
Cc1c(Cl)cccc1NC(=O)CCC(=O)c1cccs1	.	19%	.	.	.	-5%	6%	-3%
Cc1cccc(NC(=O)c2ccc(Cl)c(S(=O)(=O)N3CCCCC3)c2)n1	.	-10%	-22%	.	-27%[46.1 µM]	.	9%	5%
O=C(COC(=O)/C=C/c1ccccc1)NC1CCCCCC1	.	-13%	15%	.	?	.	-6%	-5%
COC(=O)c1[nH]c2ccccc2c1NC(=O)c1c(F)cccc1F	.	-17%	.	.	.	2%	10%	0%
COC(=O)c1cc(Br)c(=O)n(CC(C)C)c1	-3%	0%	-20%	-4.2%	-1%	1%	-1%	7%
CCn1c(/C=C/N(C)c2ccccc2)[n+](CC)c2ccc(Cl)cc21	-8%	.	?	-11%	8.2µM*	3%	-9%	1%
O=C1CSC(c2ccccn2)N1c1ccccc1F (stereo not given)	.	-9%	?	.	?	.	10%	4%
CCN1CCN(Cc2ccc(OC(F)(F)F)cc2)CC1	3%	10%	13%	3.1%	-14%	5%	-14%	-1%
O=C(Nc1ncc(Cc2cccc([N+](=O)[O-])c2)s1)c1ccco1	.	7%	.	.	.	-5%	-4%	0%
Cc1cc(C)c(NC(=O)COc2ccc(-n3cnnn3)cc2)c(C)c1	.	-9%	10%	.	24%	8%	23%	0%
CCN1C(=O)CSC1=Nc1ccccc1Cl	.	-23%	25%	.	0%	-7%	-2%	1%
CC1(c2ccccc2)NC(=O)N(CC(=O)N2CCN(S(=O)(=O)c3c(F)cccc3F)CC2)C1=O (stereo not given)	.	-16%	4%[46.1 µM]	.	-12%	.	4%	0%
CCCCN(C(=O)Cc1coc2cc(C)c(C)cc12)c1c(N)n(Cc2ccccc2)c(=O)[nH]c1=O	.	4%	?	.	9%[46.1 µM]	.	5%	5%
COc1ccc(-c2cc3nc(C)c(CCC(=O)NCc4ccco4)c(C)n3n2)c(OC)c1	?	-3%	?	-7.0%	26%	-16%	-11%	-2%
O=C(CN1C(=O)c2ccccc2C1=O)NCC1COc2ccccc2O1 (stereo not given)	-3%	7%	-2%&3%	1.5%	23%	11%	?	-1%
CC(C)Cn1nnc2c(=O)oc3ccccc3c21	-6%	-3%	1%	2.2%	10%	-45%	8%	-1%
O=C(NCCCN1CCN(c2ccccc2F)CC1)C1COc2ccccc2C1 (stereo not given)	1%	-16%	.	-1.8%	7%[46.1 µM]	.	.	.
Cc1ccc(S(=O)(=O)N2CCC(C(=O)N[C@H](C(=O)NCc3ccco3)C(C)C)CC2)cc1	-2%	-13%	10%	3.4%	-2%	6%	-2%	1%
CCOC(=O)Cc1csc(NS(=O)(=O)c2ccc3ccccc3c2)n1	4%	-9%	1%	1.0%	1%	25%	0%	21%
CCNc1nc(N)c(C(=O)C23CC4CC(CC(C4)C2)C3)s1	.	-26%	.	.	.	0%	-9%	-1%
CCn1nnnc1SCC(=O)c1cc(Cl)ccc1OC	.	10%	.	.	.	-1%	-16%	0%
CCc1cc(=O)oc2cc(OCC(=O)NCCCN3CCCC3=O)c(Cl)cc12	.	1%	.	.	.	-1%	10%	1%
Cc1ccc(S(=O)(=O)c2cc3c(=O)n4cccc(C)c4nc3n(Cc3ccco3)c2=N)cc1C	?	.	4%	-9.3%	.	8%	.	14%
COc1ccc(NS(=O)(=O)c2ccc(OCC(=O)N3CCCC3)cc2)cc1	8%	4%	-6%	-1.2%	-15%[14.3 µM]	?	4%	1%
Cc1ccccc1NC1C=CS(=O)(=O)C1 (stereo not given)	2%	-13%	8%	6.0%	9%	0%	7%	2%
Fc1ccc(-c2nnc3ccccn23)cc1	.	-6%	8%	.	6%	.	2%	-7%
OCC1(Cc2cccc(Cl)c2)CCCN(Cc2cn[nH]c2C2CCCCC2)C1 (stereo not given)	.	?	.	.	.	0%	16%	0%

Quoted at random: three entries already listed
SMILES	Cruzain noTriton	2A StopGo	Marburg entry inh	Cruzain Triton	Lassa entry inh	NS1 inh	RE007 growth inh	SARS PLpro yeast
CCNc1nc(N)c(C(=O)C23CC4CC(CC(C4)C2)C3)s1	.	-26%	.	.	.	0%	-9%	-1%
CCn1nnnc1SCC(=O)c1cc(Cl)ccc1OC	.	10%	.	.	.	-1%	-16%	0%
Cc1ccccc1NC1C=CS(=O)(=O)C1 (stereo not given)	2%	-13%	8%	6.0%	9%	0%	7%	2%
